# AF4-AF9 inh: MLL-AF4/AF9 protein interaction inhibition | inhibition, % at 10 µM | AlphaScreen, biotin-AF4 peptide binding to FLAG-AF9 | 0.47% of 350,000 active;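 active means every replicate reaching a set inhibition limit, whatever the replicate mean, cut at about 25% in these data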;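 further: 0% = plate neutral control median and 100% = total signal loss; the record names both 10 and 1 µM as test concentration; the first replicate is given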
# Target sequence (P42568 whole entry, looked up): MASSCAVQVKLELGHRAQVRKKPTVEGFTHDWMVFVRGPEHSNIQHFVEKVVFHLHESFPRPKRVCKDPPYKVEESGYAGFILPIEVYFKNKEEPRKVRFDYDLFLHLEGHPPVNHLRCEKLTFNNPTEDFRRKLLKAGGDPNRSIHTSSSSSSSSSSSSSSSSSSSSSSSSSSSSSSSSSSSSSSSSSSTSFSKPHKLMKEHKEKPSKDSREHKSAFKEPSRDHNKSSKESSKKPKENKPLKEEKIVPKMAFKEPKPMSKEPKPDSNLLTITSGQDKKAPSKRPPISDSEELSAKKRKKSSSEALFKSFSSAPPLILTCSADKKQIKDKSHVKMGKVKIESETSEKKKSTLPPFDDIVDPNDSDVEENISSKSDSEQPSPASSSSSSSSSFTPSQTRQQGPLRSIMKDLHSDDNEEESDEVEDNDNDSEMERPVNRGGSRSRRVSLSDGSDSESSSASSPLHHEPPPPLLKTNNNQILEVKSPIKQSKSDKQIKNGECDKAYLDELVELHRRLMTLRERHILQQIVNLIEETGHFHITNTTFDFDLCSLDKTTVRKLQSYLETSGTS
# FGF22 binding: shifts melting point of recombinant human FGF22. AID 651658. calls only at 9.99 µM. recombinant FGF22 thermal shift, SYPRO orange fluorescence; percent of sucrose octasulfate shift, DMSO zero. Q9HCT0. 1.5% of 340,000 active;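 active means melting point raised past a set limit in the mean and every replicate; three in four hits are not shown here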
# Target sequence (Q9HCT0 whole entry, looked up): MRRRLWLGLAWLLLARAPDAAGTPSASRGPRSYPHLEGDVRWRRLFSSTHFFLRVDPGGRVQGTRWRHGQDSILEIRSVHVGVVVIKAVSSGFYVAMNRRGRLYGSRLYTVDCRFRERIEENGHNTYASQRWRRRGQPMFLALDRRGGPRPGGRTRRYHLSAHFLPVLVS
# * marks the source's active call; other numbers are inactive results; i = inactive; + = active, no number. Only part of the results is shown. The share of hits here may be higher or lower than overall.
# Below each SMILES – AF4-AF9 inh | FGF22 binding
> CC(C)(C)[S@@](=O)N1Cc2cc(C(=O)N[C@@H]3CCN(Cc4ccccc4)C3)nc(-c3cccc(-c4cccnc4)c3)c2[C@H]1CCO
    0.3 | i
> Cc1ccc(S(=O)(=O)N[C@@H]2CC[C@@H](CCNS(=O)(=O)Cc3ccccc3)O[C@@H]2CO)cc1
    -1.5 | i
> CCCC(=O)Nc1ccc2c(c1)OC[C@H](C)N(CCC(F)(F)F)C[C@@H](C)[C@@H](OC)CN(C)C2=O
    -1.4 | i
> O=C(N[C@H]1C=C[C@@H](CC(=O)N2CCOCC2)O[C@@H]1CO)c1ccccn1
    -4.3 | i
> C[C@@H]1CN([C@@H](C)CO)C(=O)c2cc(NS(=O)(=O)c3ccc(F)cc3)ccc2O[C@@H](C)CCCCO[C@@H]1CN(C)C(=O)Nc1ccc2c(c1)OCO2
    -0.8 | i
> COc1ccc(CN(C)C[C@@H]2OCCCC[C@H](C)Oc3ccc(NS(=O)(=O)c4c(C)noc4C)cc3C(=O)N([C@@H](C)CO)C[C@H]2C)cc1
    -0.5 | i
> O=C(C[C@H]1CC[C@@H](NS(=O)(=O)c2ccccc2)[C@@H](CO)O1)NCc1ccncn1
    3.3 | i
> O=C(c1ccccc1F)N1C[C@H]2[C@@H](c3ccccc31)[C@@H](CO)N2C(=O)C1CCCC1
    -1.9 | i
> CCCNC(=O)N1C[C@@H](O)COC[C@H]2O[C@H](CC(=O)N3CCCCC3)CC[C@@H]21
    -2.9 | i
> O=C(C[C@@H]1CC[C@H]2[C@@H](COC[C@H](O)CN2S(=O)(=O)c2ccccc2)O1)Nc1ccccc1
    -0.9 | i
> CCC(=O)Nc1ccc2c(c1)C(=O)N(C)[C@H]1CC[C@H](CC(=O)NCC3CCCCC3)O[C@H]1CO2
    -0.6 | i
> CCNC(=O)C[C@@H]1CC[C@H]2[C@@H](COC[C@H](O)CN2C(=O)Nc2ccc(C(F)(F)F)cc2)O1
    -0.2 | i
> COCCNC(=O)C[C@H]1C=C[C@H](NS(=O)(=O)c2ccc(C)cc2)[C@@H](CO)O1
    0.0 | i
> C[C@H](CO)N1C[C@H](C)[C@@H](CN(C)C(=O)C2CC2)Oc2cc(-c3ccncc3)ccc2S1(=O)=O
    0.0 | i
> COCCNC(=O)C[C@H]1C[C@@H]2c3cc(NC(=O)CN(C)C)ccc3O[C@@H]2[C@H](CO)O1
    2.0 | i
> C[C@H]1CN([C@@H](C)CO)C(=O)c2cc(-c3ccc(C#N)cc3)cnc2O[C@@H]1CN(C)C(=O)CN(C)C
    -1.8 | i
> C[C@@H]1CN([C@H](C)CO)C(=O)c2cc(NC(=O)NC3CCCCC3)ccc2O[C@H]1CN(C)C(=O)Nc1cccc2ccccc12
    -4.0 | i
> O=C(NCC1CCCCC1)[C@@H]1[C@@H](CO)[C@@H]2Cn3c(cccc3=O)[C@@H]2N1Cc1ccccn1
    -0.2 | i
> COc1ccc2c3c([nH]c2c1)[C@@H](CO)N(C(=O)Nc1ccc(F)cc1)CC31CCN(Cc2cc(F)ccc2F)CC1
    4.6 | i
> COc1cc(CN2CC3(CCN(C(=O)Nc4c(C)noc4C)CC3)c3c([nH]c4cc(OC)ccc34)[C@@H]2CO)cc(OC)c1
    1.2 | i

# Another view of some results above:
CCNC(=O)C[C@@H]1CC[C@H]2[C@@H](COC[C@H](O)CN2C(=O)Nc2ccc(C(F)(F)F)cc2)O1
  AF4-AF9 inh: -0.2
  FGF22 binding: i
O=C(C[C@H]1CC[C@@H](NS(=O)(=O)c2ccccc2)[C@@H](CO)O1)NCc1ccncn1
  AF4-AF9 inh: 3.3
  FGF22 binding: i
O=C(c1ccccc1F)N1C[C@H]2[C@@H](c3ccccc31)[C@@H](CO)N2C(=O)C1CCCC1
  AF4-AF9 inh: -1.9
  FGF22 binding: i
COCCNC(=O)C[C@H]1C=C[C@H](NS(=O)(=O)c2ccc(C)cc2)[C@@H](CO)O1
  AF4-AF9 inh: 0.0
  FGF22 binding: i

# Remaining list, next part
# Below each SMILES – AF4-AF9 inh | FGF22 binding
> CC(C)NC(=O)Nc1ccc2c(c1)CC(=O)N([C@H](C)CO)C[C@H](C)[C@@H](CN(C)S(=O)(=O)c1cn(C)cn1)O2
    -2.7 | i
> Cc1noc(C)c1S(=O)(=O)Nc1ccc2c(c1)C(=O)N([C@H](C)CO)C[C@@H](C)[C@@H](CN(C)Cc1ccc(C(F)(F)F)cc1)OCCCC[C@H](C)O2
    -6.2 | i
> C[C@H](CO)N1C[C@H](C)[C@H](CN(C)Cc2ccccn2)Oc2cc(Br)ccc2S1(=O)=O
    -2.0 | i
> CC(C)NC(=O)Nc1ccc2c(c1)C(=O)N([C@@H](C)CO)C[C@H](C)[C@H](CN(C)C(=O)Nc1ccc(F)cc1)OCCCC[C@@H](C)O2
    -1.1 | i
> COc1cccc(CNC(=O)[C@H]2CCCN2C(=O)[C@H]2CCCN2C(=O)c2cccs2)c1
    -2.4 | i
> O=C(Cc1cccnc1)N1CC(=O)N2[C@@H](CO)[C@H](c3ccc(/C=C/c4ccccc4)cc3)[C@@H]2C1
    7.6 | i
> COc1cccc(NC(=O)N(C)C[C@H]2Oc3cc(/C=C/c4ccccc4)ccc3S(=O)(=O)N([C@@H](C)CO)C[C@H]2C)c1
    -3.2 | i
> C[C@H](CO)N1C[C@H](C)[C@H](CN(C)C(=O)CN(C)C)Oc2cc(C#C[C@@H](C)O)ccc2S1(=O)=O
    -2.0 | i
> O=C(Nc1ccc2c(c1)OCO2)N[C@H]1CC[C@@H](CC(=O)N2CCN(c3ccccc3)CC2)O[C@@H]1CO
    1.7 | i
> CCCN(C)C[C@@H]1Oc2cc(-c3cncnc3)ccc2S(=O)(=O)N([C@H](C)CO)C[C@@H]1C
    -1.2 | i
> C[C@H]1CN([C@@H](C)CO)C(=O)c2cc(NC(=O)Nc3cccc4ccccc34)ccc2O[C@H]1CN(C)C(=O)Nc1ccc2c(c1)OCO2
    -2.4 | i
> CN1[C@H](CO)[C@H]2c3ccccc3N(C(=O)Nc3ccccc3F)C[C@H]21
    -0.8 | i
> COc1ccc(S(=O)(=O)N(C)C[C@@H]2Oc3ccc(NC(=O)Nc4ccc(C(F)(F)F)cc4)cc3C(=O)N([C@H](C)CO)C[C@@H]2C)cc1
    0.0 | i
> C[C@H](CO)N1C[C@H](C)[C@H](CN(C)C)Oc2c(NC(=O)C3CC3)cccc2C1=O
    -0.4 | i
> Cc1cc(C(=O)Nc2cccc3c2O[C@@H](CN(C)Cc2ccc(-c4ccccc4)cc2)[C@H](C)CN([C@@H](C)CO)C3=O)n(C)n1
    -4.8 | i
> C/C=C/c1cnc2c(c1)C(=O)N([C@@H](C)CO)C[C@H](C)[C@H](CN(C)S(=O)(=O)c1ccc(F)cc1)O2
    -8.3 | i
> CC(C)c1cn(CC[C@@H]2CC[C@H](NC(=O)C3CC3)[C@@H](CO)O2)nn1
    -1.3 | i
> O=C(C[C@@H]1C[C@H]2c3cc(NC(=O)c4ccc5c(c4)OCO5)ccc3O[C@H]2[C@H](CO)O1)NCc1ccccn1
    -0.1 | i
> CCCNC(=O)N1C[C@@H]2[C@H](c3ccccc31)[C@H](CO)N2Cc1ccc2c(c1)OCO2
    -0.8 | i
> CCCN(C)C[C@@H]1OCCCC[C@@H](C)Oc2ccc(NS(=O)(=O)c3ccc(F)cc3)cc2C(=O)N([C@H](C)CO)C[C@@H]1C
    -1.8 | i
> O=C(C[C@@H]1C=C[C@@H](NC(=O)C2CCC2)[C@H](CO)O1)NCc1ccccc1Cl
    -11 | i
> COc1cccc(S(=O)(=O)N2CC[C@H]3[C@@H](CO)N(C)c4ccc(C#Cc5ccc(F)cc5)cc4[C@H]32)c1
    0.2 | i
> NC(=O)[C@]1(Cc2ccccc2)N=C(c2ccc(OCCCO)cc2)O[C@@H]1c1ccccc1
    1.6 | i
> COc1ccccc1S(=O)(=O)N(C)C[C@H]1OCc2cn(nn2)CCCC(=O)N([C@@H](C)CO)C[C@H]1C
    -0.5 | i
> C[C@H](CO)N1C[C@H](C)[C@H](CN(C)Cc2ccccc2)Oc2ccc(NC(=O)C3CCCCC3)cc2CC1=O
    0.5 | i
> O=C(Cc1ccncc1)NCC[C@H]1CC[C@H](NC(=O)C2CCC2)[C@@H](CO)O1
    -6.0 | i
> C[C@H](CO)N1C[C@H](C)[C@@H](CN(C)Cc2ccc(Cl)c(Cl)c2)Oc2c(NC(=O)NC3CCCCC3)cccc2C1=O
    3.0 | i
> COc1ccccc1-c1cnc2c(c1)C(=O)N([C@H](C)CO)C[C@H](C)[C@H](CN(C)Cc1ccncc1)O2
    -3.1 | i
> COc1ccc(CN(C)C[C@H]2Oc3ccc(NC(=O)Cc4ccccc4)cc3C(=O)N([C@@H](C)CO)C[C@H]2C)cc1
    -2.0 | +
> C[C@@H]1CN([C@H](C)CO)C(=O)c2cccc(NC(=O)C3CCOCC3)c2O[C@H]1CN(C)C(=O)Nc1cccc2ccccc12
    1.8 | i
> O=C(N[C@@H]1CC[C@H](CC(=O)N2CCOCC2)O[C@H]1CO)c1ccccn1
    -0.3 | i
> O=C(C[C@H]1C[C@H]2c3cc(NC(=O)CC4CC4)ccc3O[C@H]2[C@@H](CO)O1)NCC(F)(F)F
    -3.0 | i
> CCC(=O)Nc1ccc2c(c1)C(=O)N(C)[C@H]1CC[C@@H](CC(=O)N[C@@H](C)c3ccccc3)O[C@@H]1CO2
    -0.6 | i
> O=C(C[C@@H]1C[C@@H]2c3cc(NC(=O)CC4CC4)ccc3O[C@@H]2[C@@H](CO)O1)NCc1ccccc1
    -1.7 | i
> COc1ccc(NC(=O)N(C)C[C@@H]2OCCCC[C@@H](C)Oc3ccc(NS(=O)(=O)c4cn(C)cn4)cc3C(=O)N([C@H](C)CO)C[C@@H]2C)cc1
    -5.3 | i
> C[C@H]1CN([C@@H](C)CO)C(=O)c2cccc(NC(=O)c3ccc(-c4nccs4)cc3)c2O[C@@H]1CN(C)C(=O)Nc1ccc(F)cc1
    -1.3 | i
> C[C@@H]1CN([C@@H](C)CO)C(=O)c2cc(NC(=O)c3ccccc3)ccc2O[C@@H](C)CCCCO[C@H]1CN(C)S(=O)(=O)c1ccccc1
    0.7 | i
> C[C@H]1CN([C@@H](C)CO)C(=O)c2cccc(N(C)C)c2O[C@@H]1CN(C)Cc1ccccc1
    -2.4 | i
> C[C@H]1CN([C@@H](C)CO)C(=O)Cc2cc(NC(=O)C3CC3)ccc2O[C@@H]1CN(C)S(=O)(=O)c1ccc(F)cc1
    -1.9 | i
> COc1ccc(NC(=O)N(C)C[C@H]2OCCCC[C@@H](C)Oc3ccc(NC(=O)Cc4ccccc4)cc3C(=O)N([C@@H](C)CO)C[C@@H]2C)cc1
    0.7 | i
> O=C(c1cccc(F)c1)N1C[C@@H]2[C@H](c3ccccc31)[C@H](CO)N2Cc1cocn1
    -6.0 | i
> CCNC(=O)C[C@H]1C=C[C@@H](NS(=O)(=O)c2ccc(F)cc2)[C@@H](CO)O1
    0.3 | i
> COC(=O)[C@@H]1[C@@H](CO)[C@@H]2Cn3c(ccc(C4=CCCCC4)c3=O)[C@@H]2N1C(=O)C1CCCC1
    0.0 | i
> C[C@@H]1CN([C@@H](C)CO)C(=O)c2cc(-c3ccncc3)cnc2O[C@@H]1CN(C)S(=O)(=O)c1ccc(F)cc1
    -14 | i
> C[C@@H]1CCCCO[C@H](CN(C)Cc2ccc(Cl)c(Cl)c2)[C@@H](C)CN([C@H](C)CO)C(=O)c2cc(NC(=O)Nc3cccc4ccccc34)ccc2O1
    -11 | i
> C[C@H](CO)N1C[C@H](C)[C@@H](CN(C)S(=O)(=O)c2ccc(Cl)cc2)Oc2ccc(NS(=O)(=O)c3ccc(Cl)cc3)cc2C1=O
    -1.1 | i
> O=C(C[C@@H]1C[C@@H]2c3cc(NC(=O)C4CCOCC4)ccc3O[C@@H]2[C@@H](CO)O1)NCCN1CCCCC1
    -0.5 | i
> CCC(=O)Nc1ccc2c(c1)C(=O)N(C)[C@@H]1CC[C@H](CC(=O)NCc3ccccc3Cl)O[C@@H]1CO2
    -0.5 | i
> COc1ccc(CNC(=O)C[C@@H]2CC[C@H](NC(=O)c3ccc4c(c3)OCO4)[C@@H](CO)O2)cc1
    -0.4 | i
> Cc1ccc(S(=O)(=O)NCC[C@H]2CC[C@H](NC(=O)c3cnccn3)[C@H](CO)O2)cc1
    -1.7 | i
> COc1ccc(S(=O)(=O)N(C)C[C@@H]2Oc3ccc(NC(=O)CCCN(C)C)cc3C(=O)N([C@@H](C)CO)C[C@@H]2C)cc1
    -0.9 | i
> CN1CCN(C(=O)C[C@H]2CC[C@@H]3[C@H](COC[C@H](O)CN3Cc3cccc(-c4ccncc4)c3)O2)CC1
    -2.6 | i
> C[C@H](CO)N1C[C@H](C)[C@@H](CN(C)C(=O)Nc2ccc3c(c2)OCO3)Oc2cc(C#Cc3ccncc3)ccc2S1(=O)=O
    5.4 | i
> C[C@@H]1CN([C@@H](C)CO)C(=O)c2cccc(NC(=O)c3ccc(-c4nccs4)cc3)c2O[C@H]1CN(C)C(=O)Nc1ccc2c(c1)OCO2
    0.5 | i
> C[C@@H]1CN([C@H](C)CO)C(=O)c2c(c3ccccc3n2C)-c2ccccc2CO[C@@H]1CN(C)S(=O)(=O)c1ccsc1
    -13 | i
> C[C@@H]1CN([C@@H](C)CO)S(=O)(=O)c2ccc(-c3ccncc3)cc2O[C@H]1CN(C)C(=O)CN(C)C
    -3.5 | i
> CN1c2ccc(Br)cc2[C@@H]2[C@@H](CCN2C(=O)Cc2ccccc2)[C@@H]1CO
    1.7 | i

# Assay outcomes (PubChem)
